High-throughput results deposited in PubChem BioAssay by several laboratories.
RanGTP-Imp inh: disruptors of Ran-importin-beta complex formation – biochemical, FRET, CFP-Ran, YFP-importin-beta, homogeneous, primary screen; cell-free CFP-Ran/YFP-importin-beta FRET ratio; inhibition, % (test concentration not listed); 300,000 tested, 1.1% active;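 active = most replicates above 15%; inconclusive = exactly half above 15%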;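 also: 0% = DMSO wells and 100% = Ran loaded with GDP instead of GTP; wells of about 40 µL received 100 nL stock; the first replicate is given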
T cruzi repl: T. cruzi replication inhibition; 300,000 tested, 1.4% active; inhibition, % (no concentration beside the values); AID 1885; T. cruzi beta-gal in NIH3T3, luminescence, 90 h;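 active = mean inhibition across valid replicates above about 55%, limit read from the data; inconclusive = mean below that limit but half or more replicates reach it; inactive = mean below it, under half of replicates reach it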;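 also: signal also drops with host cell toxicity which is not excluded here; 0% = plate median of DMSO wells and 100% = zero luminescence signal; higher percent means less beta-gal luminescence so fewer parasites; stock transfer was 50 nL into about 50 µL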
MLL AF4-AF9 inh: MLL-AF4/AF9 protein interaction inhibition. P42568. AlphaScreen, biotin-AF4 peptide binding to FLAG-AF9. inhibition, % at 10 µM. 350,000 tested, 0.47% active. AID 651704;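 active = every replicate reaching a set inhibition limit, whatever the replicate mean, cut at about 25% in these data; inconclusive = mean inhibition reaches that limit but some replicates miss it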;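 also: 0% = plate neutral control median and 100% = total signal loss; the record names both 10 and 1 µM as test concentration; the first replicate is given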
Target sequence (P42568 whole entry, looked up): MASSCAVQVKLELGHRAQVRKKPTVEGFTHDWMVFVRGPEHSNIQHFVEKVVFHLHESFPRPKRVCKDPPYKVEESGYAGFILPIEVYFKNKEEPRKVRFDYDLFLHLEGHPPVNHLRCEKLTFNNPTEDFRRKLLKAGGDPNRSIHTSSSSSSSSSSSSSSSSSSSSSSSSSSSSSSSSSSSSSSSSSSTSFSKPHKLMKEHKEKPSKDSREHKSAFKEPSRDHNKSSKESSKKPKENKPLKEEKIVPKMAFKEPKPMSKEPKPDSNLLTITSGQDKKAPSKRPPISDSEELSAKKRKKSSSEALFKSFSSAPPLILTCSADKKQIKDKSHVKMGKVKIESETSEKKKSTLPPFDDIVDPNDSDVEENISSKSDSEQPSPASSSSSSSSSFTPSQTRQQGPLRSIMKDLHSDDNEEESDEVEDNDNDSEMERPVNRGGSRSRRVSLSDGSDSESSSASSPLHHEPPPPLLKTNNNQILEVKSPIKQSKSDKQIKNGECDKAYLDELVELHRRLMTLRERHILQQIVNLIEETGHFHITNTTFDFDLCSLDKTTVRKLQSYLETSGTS
Vif A3G: inhibitors of Vif binding to APOBEC3G peptide, primary screen, biochemical, TR-FRET, GST-Vif 1-94, biotin-A3G peptide, dose response retest (AID 1117319); one-dose inhibition, %; IC50 in µM for titrated hits; 260,000 tested, 0.57% active; TR-FRET GST-Vif / biotin-A3G peptide binding; higher % means a stronger effect; test concentration not given here; strong numbers were not always called active;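 active = above the screen mean plus three standard deviations and confirmed in dose response; inconclusive = results disagree or hit not tested in dose response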;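 also: Vif residues 1-94 fused to GST binding biotinylated APOBEC3G peptide 110-148; 0% = full assay without inhibitor and 100% = GST in place of GST-Vif; retest series ran down from 100 µM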
Beta cell apopt: beta cell apoptosis inhibition | INS-1E cytokine-induced death, ATP luminescence, 48 h; percent of positive-control rescue, neutral wells zero | 300,000 tested, 0.8% active | protection from apoptosis, % (concentration not given with the values);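 active = all replicates at 75% or more, or half of them and the mean; inconclusive = half reach 75% but not the mean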;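 also: 0% = cytokine-treated negative control wells and 100% = positive control rescue; higher means more ATP so stronger rescue from cytokine killing; wells of about 40 µL received 100 nL stock; the first replicate is given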
Calb FLC: C. albicans growth modulation with fluconazole. C. albicans CaCi-2 (fluconazole-resistant clinical isolate) + fluconazole, Alamar Blue growth, 48 h. growth inhibition, % (no concentration beside the values). 300,000 tested, 0.57% active. AID 1979;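 active = most replicates above 75%; inconclusive = exactly half above 75%; inactive = most below 75%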;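 also: all wells also contain fluconazole at 8 µg/ml as a sub-toxic cotreatment; 0% = median of DMSO wells and 100% = median of geldanamycin control wells; wells of about 8 µL received 7.5 nL stock; the first replicate is given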
Bfl-1 A1 inh: inhibitors of the anti-apoptotic protein A1, read as caspase activation | MEF A1-2A-BIM cells, Caspase-Glo 3/7 luminescence, 3 h; percent of clofoctol response, vehicle zero | 330,000 tested, 0.066% active | caspase activation, % (concentration not given with the values);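 active = over half of replicate activation scores above 10%, or exactly half above 10 with the replicate mean above 10; inconclusive = replicate mean below 10 yet half the replicates above 10; inactive = over half of replicates below 10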;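 also: wells of about 30 µL received 50 nL stock; many hits fall short of the cut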
rRNA inh HTS: inhibits bacterial ribosomal RNA function over humanized ribosomes | 350,000 tested, 1.6% active | AID 720706 | E. coli WT GFP vs humanized-ribosome RFP mutants, fluorescence, 24 h; active compounds read low; DMSO median 0, no signal -100 | GFP signal change (wild-type ribosome), % (concentration not given with the values);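 active = significant combined selectivity score with lowered wild-type GFP, culture density cut under 30%, mutant RFP and density less affected; inactive = any of these conditions unmet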; also: one replicate is shown; some compounds called inactive have numbers as strong as hits
rRNA inh HTS OD600: also measured in rRNA inh HTS; calls as there; OD600 change, %; measured here: OD600 growth;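 optical density of the mix in the first replicate; 0 = DMSO median and -100 = no signal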
rRNA inh HTS RFP: recorded beside rRNA inh HTS, whose call it bears; RFP signal change, %; measured here: RFP humanized mutant strains;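 first replicate; 0 = DMSO median and -100 = no signal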
The depositor's hits bear a star; ? = inconclusive; / = not tested or not shown. Not all compounds are listed; rates above refer to the full screens.

No.	SMILES	Bfl-1 A1 inh	rRNA inh HTS	rRNA inh HTS OD600	T cruzi repl	Calb FLC	RanGTP-Imp inh	MLL AF4-AF9 inh	Beta cell apopt	rRNA inh HTS RFP	Vif A3G
1	Cc1ccc(N2C(=O)C3C4CC(=O)C(c5ccccc54)C3C2=O)cc1 (stereo not given)	-0.4	/	/	-3	-8	0.4	/	2	/	-5%
2	COc1cccc(N2CC(C(=O)Nc3ccc(C(=O)OC(C)C)cc3)CC2=O)c1 (stereo not given)	-1.0	-11	-7	-2	-7	-0.4	/	-1	-3.5	-7%
3	CC1CC(C)CN(c2cc(N(C)CCO)c([N+](=O)[O-])c3nonc23)C1 (stereo not given)	-0.9	-33	-30	44	2	5.0	-2.7	8	3.0	9%
4	Cc1ccc(CCSc2ccc(F)cc2)cn1	1.6	-22*	-4.9*	10	3	8.6	-2.5	-13	0.1*	-7%
5	COc1ccc(NC(=O)N(CCC(C)C)C(C)c2ccccn2)c(OC)c1 (stereo not given)	-0.1	-4	-17	11	11	1.9	4.2	/	0.0	0%
6	CN1CC(=O)NC1=NC(=O)c1cc(F)c(F)cc1Cl	0.8	/	/	1	-2	-3.2	/	-6	/	2%
7	Cc1cc(C)cc(N(C(=O)C(F)(F)F)C(C(=O)NC2CCCCC2)c2cccs2)c1 (stereo not given)	0.4	/	/	-3	3	?	/	/	/	10%
8	Cc1ccc(N(C(C)C(=O)Nc2ccc(S(=O)(=O)N3CCOCC3)cc2)S(C)(=O)=O)cc1 (stereo not given)	0.2	/	/	-10	3	-2.1	/	-1	/	26%
9	COc1ccccc1OCCNC(=O)c1ccc(C)c(S(=O)(=O)N2CCOCC2)c1	-0.4	-5	-12	13	-9	-2.1	-12	0	-0.8	0%
10	COc1cccc(N(CC(=O)N2CCCCCC2)S(C)(=O)=O)c1	0.1	-9	-5	-1	0	0.8	1.7	0	-4.2	/
11	CN(Cc1cccnc1)C(=O)c1cc(COc2ccc3c(c2)CCCC3)on1	-4.1	-49	-74	39	0	4.2	1.5	24	-12	-1%
12	Cc1cccc(C(=O)NN/C=C/C(=O)c2ccccc2)c1	-0.3	1	1	1	-14	3.6	7.8	-7	5.8	/
13	O=C(CCCN1C(=O)[C@H]2CC=CC[C@H]2C1=O)NCc1nc(-c2ccccc2)no1	1.2	2	-5	5	-7	-0.1	-2.4	/	3.3	/
14	O=C(Nc1ccc2c(c1)OCCO2)C(=S)NCc1ccccc1	-0.2	-32*	-13*	-12	-34	0.0	-4.4	-5	-2.2*	-4%
15	O=C(COc1ccccc1Cl)N1CCN(c2ccc([N+](=O)[O-])c(N3CCOCC3)c2)CC1	-0.7	/	/	1	-1	3.5	/	-6	/	8%
16	Cc1ccc2oc3nc(C)c(C(=O)O)cc3c(=O)c2c1	-8.2	/	/	4	-7	3.6	/	23	/	3%
17	CC(=O)c1ccc(-c2ccc(C(=O)N3CCN(c4ccc(F)cc4)CC3)o2)cc1	-0.3	-28	-6	30	9	-0.6	8.7	-6	25	/
18	Cc1cccc(NC(=O)c2ccc(S(=O)(=O)N3CCCC3)cc2)c1C	0.2	5	1	-20	-3	1.9	-0.4	0	-1.4	/
19	O=C(CSCc1c(F)cccc1Cl)Nc1ccccc1C(=O)N1CCOCC1	-0.4	26	16	-11	-11	4.2	-3.8	-10	2.2	-3%
20	COC(=O)c1ccc2[nH]ccc2c1	-0.8	-2	6	-11	-23	2.5	-1.7	-5	-3.4	/
21	CCc1ccccc1NC(=O)CSc1nc2ccccc2nc1N1CCOCC1	1.1	1	2	8	8	1.0	-6.5	-6	-2.9	/
22	COc1ccc(Cl)cc1NC(=O)c1ocnc1C	0.2	18	13	-10	2	0.6	4.8	0	-5.3	30%
23	O=C(CN1CCOCC1)Nc1ncc(Cc2ccccc2Cl)s1	0.3	/	/	13	4	1.1	/	/	/	3%
24	O=C(O)CC(CNS(=O)(=O)c1ccccc1)c1ccccc1 (stereo not given)	0.7	2	4	7	-3	-2.2	-1.5	-3	0.2	20%
25	O=C(c1cc(C2CC2)on1)N1CCOCC1	-0.2	3	-6	6	-4	-5.1	0.3	-7	-4.6	5%
26	O=c1c(Cc2ccc(F)cc2)c(O)ccn1CCCN1CCOCC1	1.0	21	14	-1	-7	5.3	0.1	-5	0.1	4%
27	NC(=O)NC(CC(=O)NNC(=O)c1cccs1)c1ccc(Cl)cc1 (stereo not given)	0.8	12	12	/	/	/	8.5	-5	4.0	-5%
28	O=c1c2c3c(sc2n(CCN2CCCC2)c(=O)n1Cc1ccco1)CCCCC3	0.0	/	/	57*	36	8.3	/	/	/	4%
29	CC(=O)Nc1cccc(NC(=O)c2ccc3[nH]c(C)c(C)c3c2)c1	-0.3	-4	-4	-17	-4	2.4	4.8	2	0.8	1%
30	C=CCNC(=O)O/N=C/c1csc([N+](=O)[O-])c1	0.1	12	4	57*	8	1.8	0.9	-13	4.4	-6%
31	O=S(=O)(c1ccc(Cl)nc1)N1CCCC1	0.4	19	17	/	/	/	-5.5	2	0.0	/
32	C=CCC(=O)NC1CCCc2c1cnn2-c1cc(F)cc(F)c1 (stereo not given)	0.7	9	-2	-18	1	?	-1.6	-2	2.8	/
33	O=C(Cc1ccc(S(=O)(=O)N2CCOCC2)s1)Nc1cc(Cl)ccc1Cl	-1.0	2	7	/	/	/	3.9	3	-2.1	-6%
34	CS(=O)(=O)N1CCc2cc(C(=O)Nc3ccccc3)ccc21	-0.7	5	3	10	15	?	-3.0	2	3.3	6%
35	O=C(O)/C=C/C(=O)NC1CC1	1.5	12	7	-6	0	-3.9	-1.4	0	-9.1	?
36	CC1CC(C)CN(CCCNC(=O)c2ccc3nc(N4CCOCC4)sc3c2)C1 (stereo not given)	-0.1	12	14	-3	-4	-0.3	5.1	-12	-3.6	/
37	CN(C)CC(O)COc1cc2ccccc2cc1C(=O)N1CCCCC1 (stereo not given)	0.5	/	/	5	103*	2.6	/	/	/	22%
38	O=C(c1cc(Cl)ccc1[N+](=O)[O-])n1cnc2ccccc21	0.3	12	5	-20	-7	3.7	6.4	/	-0.4	17%
39	O=C(CSc1nncs1)N1c2ccccc2Sc2ccccc21	-0.5	/	/	40	?	-5.2	/	-4	/	0%
40	C#CCSc1ncc(S(=O)(=O)c2ccccc2)c(=O)[nH]1	-0.7	20	7	-8	7	-2.0	-2.8	-2	0.6	2%
41	CCN(CC)CCOc1cccc(C(C)C)c1	1.7	/	/	5	0	3.1	/	-7	/	6%
42	CCOc1ccc(NC(=S)NCC(c2cccnc2)N2CCOCC2)cc1 (stereo not given)	0.0	7	3	-12	-8	-1.7	-0.5	2	-2.7	10%
43	COc1cc(NC(=O)C2=CC(c3ccc(C)cc3)=NS(=O)(=O)N2C)cc(OC)c1OC	-0.6	-3	-3	4	-8	0.1	3.2	5	0.7	/
44	CCN(CC)C(=O)CSc1nc(O)cc(=O)n1CC	0.3	/	/	0	20	?	/	2	/	4%
45	Cc1cc(O)c(C(=O)/C=C/c2ccc(C(C)C)cc2)c(=O)o1	2.6	-5	-10	5	3	1.5	-1.2	-9	-8.2	7%
46	COc1cc(SC)ccc1C(=O)Nc1nccs1	-6.1	-25*	-19*	0	20	?	0.0	-21	-0.1*	17%
47	O=c1c(CO)cc(CO)cc(CO)c1O	0.3	-6	4	3	0	3.3	-4.4	-3	9.3	?
48	CCOC(=O)N1CCN(CC(O)COC2CC(C)CCC2C(C)C)CC1 (stereo not given)	0.6	/	/	-1	-11	3.4	/	3	/	-2%
49	O=C(c1ccco1)N1CCN(C(=O)c2ccc(COc3ccc(F)cc3)o2)CC1	0.7	/	/	8	-13	2.1	/	-2	/	2%
50	O=[N+]([O-])c1ccccc1S(=O)(=O)Nc1cccc(-c2ccc(N3CCCC3)nn2)c1	-6.4	3	12	8	55	-1.9	3.3	6	-1.1	5%
51	COc1ccc(-c2nnc3sc(-c4ccccn4)nn23)cc1	0.6	/	/	2	-24	-2.8	/	1	/	/
52	CCCc1nnc(NC(=O)C2CC(=O)N(C3CCCC3)C2)s1 (stereo not given)	0.3	10	16	2	-1	-1.6	1.1	-13	1.0	/
53	COc1ccc(C(=O)C2CCCN(C(=O)c3cc(C)nc(C)n3)C2)cc1OC (stereo not given)	-1.0	/	/	8	-1	0.2	0.2	0	/	4%
54	c1coc(Cn2c(SCc3nc4ccccc4[nH]3)nnc2-c2cnccn2)c1	-0.3	/	/	8	22	2.0	/	/	/	31%
55	COc1ccc(S(=O)(=O)N2CCN(C)CC2)cc1NC(=O)c1ccccc1	0.5	2	2	4	-9	1.1	-6.6	-6	-3.8	/
56	O=C(NCCC1=CCCCC1)c1ccc(Cl)c([N+](=O)[O-])c1	-0.6	-9	-8	-28	13	2.5	2.9	-3	-1.7	1%
57	CCCN1CCC(NC(=O)CCc2nnc(-c3ccccc3)o2)CC1	0.0	/	/	-2	-1	4.6	/	4	/	9%
58	CCN1CCN(C(=O)c2c(-c3c(F)cccc3Cl)noc2C)CC1	-1.5	/	/	3	-19	5.0	/	/	/	4%
59	CC(=O)C[C@@H](O)CC(=O)[C@H]1OC(=O)[C@@H](C)C/C=C\Cc2ccccc21	-0.2	-1	8	/	/	/	1.4	0	-0.1	3%
60	O=C(O)c1cc(S(=O)(=O)NCCN2CCNC2=O)ccc1O	-0.6	6	6	-4	4	-4.2	-1.0	5	2.2	29%

The results go on:
No.	SMILES	Bfl-1 A1 inh	rRNA inh HTS	rRNA inh HTS OD600	T cruzi repl	Calb FLC	RanGTP-Imp inh	MLL AF4-AF9 inh	Beta cell apopt	rRNA inh HTS RFP	Vif A3G
61	Cc1cnc(CNC(=O)CC2C(=O)NCCN2Cc2ccccc2F)cn1 (stereo not given)	-0.5	14	6	-10	2	-2.1	-2.4	-5	0.5	/
62	Cc1ccc2c(COC(=O)C3CSC4(C)CCC(=O)N34)cc(=O)oc2c1C (stereo not given)	-1.0	0	-8	/	/	/	-1.5	5	0.1	/
63	O=C(NN=C1CCN(Cc2ccccc2)CC1)c1ccccc1O	-1.2	/	/	9	-28	6.8	-0.8	-7	/	-9%
64	O=C1N/C(=N\c2ccccn2)SC1Cc1ccccc1Cl (stereo not given)	-0.5	1	5	-2	-2	?	0.5	/	-1.9	/
65	Cc1ccc(C(=O)NCC(=O)OC2CCCCC2=O)cc1C (stereo not given)	0.4	6	8	/	/	/	-1.6	2	-3.2	4%
66	OCCC1CN(Cc2cccc3c2OCO3)CCN1C1CCCC1 (stereo not given)	3.2	-2	-3	-13	-11	-0.9	-0.3	-2	3.5	23%
67	CC/C(=N\NC(=O)C1CCCC1)c1cccc(Br)c1	-0.6	3	7	/	8	/	-1.3	-1	-2.7	/
68	Cc1ccc(S(=O)(=O)N2CCCCCC2)cc1C(=O)NCc1ccccn1	0.1	1	-2	3	?	-1.3	0.2	-5	-2.0	/
